# ClpP mod: qHTS Assay for Activators of ClpP; ATP-dependent Clp protease proteolytic subunit (Bacillus subtilis (strain 168)), P80244; purified B. subtilis ClpP, FRET peptide cleavage, 20 min; Potency, µM (doses to about 57.5 µM), for inactives: at the top dose activity change, negative = active; 1.9% of 340,000 active; active = well fitted falling curve with a large enough effect; inconclusive = small, poorly fitted or top-dose-only effect; inactive = no such curve, though single readings can be large or run the other way; further: potency means the concentration at half of the fitted maximal effect; the source files actives as falling curves though it sought activators and does not explain the sign; nearly all actives have a fitted effect of over 65% in size; many hits overshoot -100%
# Target sequence (P80244 whole entry, looked up): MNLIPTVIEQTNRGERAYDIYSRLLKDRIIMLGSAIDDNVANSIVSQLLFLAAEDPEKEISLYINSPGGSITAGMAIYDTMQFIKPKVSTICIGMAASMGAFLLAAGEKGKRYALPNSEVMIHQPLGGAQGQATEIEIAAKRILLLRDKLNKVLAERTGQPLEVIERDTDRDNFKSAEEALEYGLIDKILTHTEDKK
#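 FRET quenching reversal measured ClpP activation: 10 microg/mL B. subtilis ClpP at pH 8 with the FRET-FV decapeptide, read at 430 nm after 320 nm excitation. The 20-min minus 0-min signal was scaled between DMSO/no-enzyme wells and ADEP (5.8 microM final).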
# Menin-MLL FL inh: qHTS Assay for Inhibitors Targeting the Menin-MLL Interaction in MLL Related Leukemias: Competition With Fluorescein Labeled MLL-derived Peptide; FP activity change, % at 61.4 µM; AID 1766, 2009; 290,000 tested, under 10 active; Fluorescence polarization, fluorescein-MLL peptide displacement from menin; inconclusive = falling polarisation curve, or a change in total fluorescence; inactive = total fluorescence flat and polarisation flat or rising; no compound was filed as active; the % refers to the polarisation; negative = inhibition;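 further: % of control where 0% means no effect; inhibitors lower the polarisation; unlabelled MLL peptide was the positive control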
# gsp antagonist: qHTS for Antagonists of gsp, the Etiologic Mutation Responsible for Fibrous Dysplasia/McCune-Albright Syndrome: qHTS; gsp-mutant cells, cAMP HTRF, 30 min; control for the full effect not named in the record; Potency, µM (titrated, usually from 76.9 µM), without a hit: at the top dose activity change, negative = inhibition, most hits filed as inhibitors; 0.4% of 340,000 active; active = falling curve of any shape with a large fitted effect; inconclusive = falling curve, mostly with a smaller effect; inactive = flat or rising curve; cell line not stated here;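 further: intracellular cAMP measured with PDE inhibitor Ro 20-1724 present during compound exposure; potency means the concentration at half of the fitted maximal effect; on the % scale 0 is the no-effect control and ±100 the full control effect; nearly all actives have a fitted effect of over 65% in size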
#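 Measurement of cellular cAMP by homogeneous time-resolved fluorescence following a 30 min compound exposure at 37C. The PDE inhibitor […] was present throughout; the assay buffer was DPBS with 0.05% BSA and 0.005% Tween 20.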
# TRPML1 ag: qHTS for Agonists of the Human Mucolipin Transient Receptor Potential 1 (TRPML1) | Mucolipin-1 (Homo sapiens), Q9GZU1 | TRPML1-expressing cells, Ca2+ dye fluorescence, FDSS; host cell line not named in the record; reference of the full effect not given here | activation, % (no concentration beside the values) | 0.12% of 410,000 active | AID 624414, 2012; in the data active = activation above about 50%; inconclusive = about 30% to 50%; inactive = below about 30%; further: 0% is about no effect; the text of the record puts the active cut at 80%
# Target sequence (Q9GZU1 whole entry, looked up): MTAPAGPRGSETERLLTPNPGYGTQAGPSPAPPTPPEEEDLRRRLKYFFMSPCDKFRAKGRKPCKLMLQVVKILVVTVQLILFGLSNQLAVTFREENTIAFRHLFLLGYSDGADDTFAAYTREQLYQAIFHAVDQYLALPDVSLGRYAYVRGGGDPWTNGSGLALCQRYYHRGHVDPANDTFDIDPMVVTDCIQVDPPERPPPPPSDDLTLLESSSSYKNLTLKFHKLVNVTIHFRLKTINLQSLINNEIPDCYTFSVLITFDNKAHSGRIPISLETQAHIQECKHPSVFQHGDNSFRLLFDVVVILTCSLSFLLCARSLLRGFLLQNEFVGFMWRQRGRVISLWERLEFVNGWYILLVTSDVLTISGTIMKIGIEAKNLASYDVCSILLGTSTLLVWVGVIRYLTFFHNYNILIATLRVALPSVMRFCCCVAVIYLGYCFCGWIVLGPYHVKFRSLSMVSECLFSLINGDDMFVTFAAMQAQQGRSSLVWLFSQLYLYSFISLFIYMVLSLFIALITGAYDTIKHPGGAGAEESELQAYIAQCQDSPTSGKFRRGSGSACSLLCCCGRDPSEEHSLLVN
#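 Calcium fluorescence on an FDSS kinetic reader gave the read-out. Tet-induced TRPML1-DL cells were plated overnight, dye-loaded (Ca8 with quencher, 45-90 min, room temperature, dark), then read 110 s after compound addition, and again 110 s after 4uM final 54-4 (EC80).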
# TRPML1 inh: qHTS for Inhibitors of the Human Mucolipin Transient Receptor Potential 1 (TRPML1); TRPML1-inducible cells, Ca2+ dye fluorescence, FDSS; stronger effect = lower value; inhibition of EC80 agonist-evoked calcium signal; activity change, negative = inhibition, % (no concentration beside the values); 0.02% of 390,000 active; in the data active means activity change below about -50%; inconclusive means about -30% to -50%; inactive means above about -30%;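 further: stimulus is agonist 54-4 at its EC80 concentration; on the % scale 0 is the no-effect control and ±100 the full control effect; compound concentration not given in the record; the text of the record puts the active cut at -80%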
#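 TRPML1-DL cells, Tet-induced overnight (~16 h, 37 °C) at 1,500 cells/well, were loaded with Ca8 no-wash dye plus quencher for 45-90 min at room temperature. Compounds were pinned during FDSS kinetic reading; agonist 54-4 at EC80 (4 uM final) then added.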
# gsp ag: qHTS for Agonist of gsp, the Etiologic Mutation Responsible for Fibrous Dysplasia/McCune-Albright Syndrome: qHTS | AID 624287, 2012 | 0.13% of 340,000 active | gsp mutant cells, cAMP HTRF, 30 min; control for the full effect not named in the record | Potency, µM (doses to about 76.9 µM), for the others: at the highest dose activation (cAMP increase), usual class: activators; active = well fitted activation curve with a large enough effect; inconclusive = small, poorly fitted or top-dose-only effect, or another doubt; inactive = no such curve, though single readings can be large or run the other way; cell line not stated here;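 further: phosphodiesterase inhibitor Ro 20-1724 added with compounds to block cAMP breakdown; potency means the concentration at half of the fitted maximal effect; nearly all actives have a fitted effect of over 60% in size; about a fifth of the inactives were tested at one dose only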
#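 Cells in DMEM/10% FBS with G418 were pretreated with compounds in DMSO plus […] (300 uM stock) for 30 min at 37C. cAMP was measured by HTRF (cAMP-d2 plus anti-cAMP antibody-K) after 30 min at room temperature.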
# * hit, by the source's call; ? = inconclusive; · = not tested or not shown; [ ] = remark or other dose.
SMILES	gsp antagonist	TRPML1 ag	ClpP mod	TRPML1 inh	Menin-MLL FL inh	gsp ag
COc1ccc(S(=O)(=O)Nc2cccnc2)c(C)c1C	?	0.3	·	-11	-1.5	1%
C/C=C\C(=O)Nc1cccc(C2=NOC3(C2)C[C@H](C(N)=O)N(C(=O)Cc2ccc([N+](=O)[O-])cc2)C3)c1 (stereo partly drawn)	12%	-1.0	1.1%	1	-7.6	11%
COc1ccc2nc(-c3ccccc3)cc(C(=O)OCC(=O)N3CC(C)OC(C)C3)c2c1 (stereo not drawn)	-16%	6.4	4.0%	42	·	12%
Cc1ccc(OCC(=O)Nc2ccc3oc(=O)ccc3c2)cc1C	-5%	0.9	·	12	7.4	-19%
COc1ccc(N2CCN(C(=O)c3ccc(SC)cc3OC)CC2)cc1	-8%	1.0	·	-1	2.5	-14%[15.4 µM]
CC(C)NCC(O)COCCOc1ccc(C(C)(C)C)cc1 (stereo not drawn)	-4%	0.3	-1.7%	9	0.6	5%
NC(=O)c1c(NC(=O)C2CCCO2)sc2c1CCC2 (stereo not drawn)	3%	1.3	-21%	-3	1.8	10%
Cc1ccc2cc(C)c3nnc(SCc4ccc(C(=O)O)cc4)n3c2c1C	-7%	1.0	·	-11	0.6	0%[15.4 µM]
Cc1ccc(-n2nc3c(=O)n(CCCC(=O)N4CCC(C(N)=O)CC4)nc(C)c3c2C)cc1	7%	0.0	-7.2%	-5	0.5	19%
COc1cc(NCCCCCCCN)c2ncccc2c1	17%	-0.5	?	-17	0.3	-56%[inhibitor]
Cc1ccc(S(=O)(=O)C(CNC(=O)C(=O)NCCc2ccc(F)cc2)c2cccs2)cc1 (stereo not drawn)	·	1.7	1.5%	64	·	·
CCN(CC(=O)Nc1cccc(OC)c1)CC(=O)Nc1ccc(C)cc1Cl	-3%	0.9	·	-1	-5.4	-2%[15.4 µM]
CC1(C)Cc2c(sc3nc(N/N=C/c4ccccc4)[nH]c(=O)c23)CO1	2%	1.3	3.5%	-13	-0.6	6%
CCOc1ccc(C(CC(=O)O)NC(=O)C(Sc2ccccc2)c2ccccc2)cc1 (stereo not drawn)	-20%	0.4	·	14	1.7	6%[15.4 µM]
C=CCn1cnnc1SCC(=O)N(C1CCCCC1)C1CCS(=O)(=O)C1 (stereo not drawn)	1%	-0.1	-2.7%	11	·	4%[15.4 µM]
O=C(Nc1ccc2c(c1)OCCO2)C1CCN(C(=O)c2ccc(Br)cc2)CC1	-4%	1.2	-1.0%	-2	3.2	26%
COc1ccc(OC)c(NC(=O)C2C(C(=O)O)C3(Cl)C(Cl)=C(Cl)C2(Cl)C3(Cl)Cl)c1 (stereo not drawn)	0%	-0.4	·	21	1.0	-4%
O=C(Nc1cccc([N+](=O)[O-])c1)N1CCc2ccccc2C1	-2%	0.0	-0.5%	13	-0.8	-3%
COc1ccc(S(=O)(=O)N2CCCC(C(=O)N3CCOCC3)C2)cc1Cl (stereo not drawn)	?	0.9	2.0%	9	0.0	-1%
Cc1c(NC(=O)CN2C(=O)NC3(CCCC3)C2=O)c(=O)n(-c2ccccc2)n1C	4%	1.0	-19%	-5	-4.4	-12%[15.4 µM]
CCCN=C1N(C)C[C@@H]2[C@@H]3C(=O)N(C)C(=O)[C@@H]3[C@](Cc3ccccc3)(C(=O)OC)N12	8%	1.0	1.0%	-12	·	·
O=C(CNCc1ccccn1)N1CCc2ccccc2C1	8%	-0.4	·	12	3.2	-13%[15.4 µM]
CCN(CC)S(=O)(=O)c1ccc(C)c(NC(=O)CN(C)C)c1	10%	1.9	·	-5	1.1	3%[15.4 µM]
COc1ccc(CN(C(=O)c2snc(C(N)=O)c2N)C(C(=O)NC2CCCC2)c2ccc(OC)cc2)cc1 (stereo not drawn)	-13%	-0.3	-2.0%	-20	-0.7	4%[15.4 µM]
Brc1ccc(C2=Nn3c(nnc3-c3cccnc3)SC2)s1	-2%	1.8	-1.4%	-11	3.9	-1%
CC1(C)CC(=O)C=C(c2cc3ccccc3s2)C1	-3%	2.7	-2.4%	19	·	-6%
O=C(C1CCN(S(=O)(=O)N2CCOCC2)CC1)N1CCN(Cc2ccc3c(c2)OCO3)CC1	9%	-0.3	-1.3%	45	-0.5	-24%
Cc1onc(-c2ccccc2Cl)c1C(=O)NCc1nnnn1-c1ccc(F)cc1	5%	0.0	-2.1%	-2	·	-2%[15.4 µM]
Cc1ccc(S(=O)(=O)N2CCOCC2)cc1NC(=O)COC(=O)CCC(=O)c1ccc(F)cc1	-11%	-0.7	-1.3%	-3	·	-6%
CC(=O)N1c2ccc(S(=O)(=O)N3CCC(C(=O)NCc4ccccc4Cl)CC3)cc2CC1C (stereo not drawn)	?	1.1	1.3%	-8	-0.7	-40%[inhibitor]

# Further entries follow:
SMILES	gsp antagonist	TRPML1 ag	ClpP mod	TRPML1 inh	Menin-MLL FL inh	gsp ag
COc1ccc(-c2csc(NC(=O)CN3C(=O)NC4(CCCC4)C3=O)n2)c(OC)c1	-3%	0.7	-4.2%	-17	·	-7%[15.4 µM]
COc1cccc(/C=N/N2CCN(c3ccc(Cl)cc3)CC2)c1OC	9%	·	1.2%	·	-5.6	5%
CC(=O)CSc1nc2cc3c(cc2cc1C#N)OCCO3	-16%	4.4	-2.5%	17	?	-3%[15.4 µM]
CC1CCN(C(=O)COC(=O)CCC(=O)c2ccc(Cl)cc2)CC1	-12%	-0.8	0.4%	1	·	-62%[inhibitor]
Cc1ccc(C(=O)Nc2c3c(nn2C(C)(C)C)CS(=O)(=O)C3)cc1C	11%	1.5	-1.9%	8	2.5	32%
O=C(NCCS(=O)(=O)NCc1ccc(F)cc1)c1ccccc1	2%	-0.1	-2.3%	-8	·	5%
CCOc1ccc2nc(C)cc(Nc3ccc4c(c3)OCCO4)c2c1	21%	-0.3	-2.1%	3	4.2	?
COc1ccc(C)c2sc(N(CCN(C)C)C(=O)/C=C/c3cccs3)nc12	-8%	2.1	-0.5%	13	·	?
COc1ccc(/C=C2\SC(=S)N(C(C)C(=O)NC3C=CS(=O)(=O)C3)C2=O)cc1 (stereo not drawn)	-18%	1.7	0.9%	?	11	?
C/C(=C\C(=O)c1ccc(F)cc1)Nc1ccc(N2CCOCC2)cc1	-22%	-0.8	0.9%	38	-1.6	-1%
CC1CCCCN1CCCNC(=O)CCCN1C(=O)c2cccnc2Sc2ccccc21 (stereo not drawn)	12%	-0.3	-2.5%	-1	·	4%
CC1CCN(C(=O)CCc2ccc(S(=O)(=O)NC(C)(C)C)cc2)CC1	2%	0.0	1.1%	-12	2.2	-1%
Cc1ccc(CN2CCC(CNC(=O)c3cc4ccc5cccnc5c4[nH]3)CC2)cc1	·	-0.9	0.4%	18	·	·
CNc1nc2c(C)cccn2c(=O)c1C=Nc1ccc(OC)cc1	6%	1.9	4.1%	-12	2.4	-13%
CCOc1cc(/C=C2\SC(=NC)N(C)C2=O)cc(Cl)c1OC(C)=O	-11%	0.8	-0.5%	-11	?	?
N#Cc1ccc(-c2ccc(F)cc2)nc1Oc1ccc(F)cc1	4%	0.6	?	18	4.1	-2%
O=C(COC(=O)c1ccccc1F)NC1CCCC1	12%	-0.6	-0.7%	9	1.7	-10%[15.4 µM]
CC(/C=N/n1c(COc2ccccc2)n[nH]c1=S)=C\c1ccccc1	-22%	2.2	2.8%	0	-1.0	0%
COc1cccc(-c2nc(Cc3ccc(OC)c(OC)c3)no2)c1	?	1.1	-1.6%	26	?	9%
Cc1cccc(C(C)C)c1NC(=O)C1CCN(S(=O)(=O)c2ccccc2)CC1	-18%	0.9	-0.9%	0	·	-8%
Cc1ccc(Nc2cc(Cl)nc(N)n2)c([N+](=O)[O-])c1	6%	2.9	·	-3	·	2%
CCOC(=O)C1=C(c2ccccc2)OC(N)=C(C#N)C1c1ccncc1 (stereo not drawn)	-6%	0.6	·	0	-0.8	-12%[15.4 µM]
O=C(Nc1cccc(Cl)c1)N1CCCCCC1	2%	1.2	-0.4%	-1	-5.5	-5%[15.4 µM]
CCCC(c1nnnn1Cc1cccs1)N1CCN(C2CCCC2)CC1 (stereo not drawn)	9%	0.7	-1.0%	13	·	-14%
COc1ccc(CN2CCC(C(=O)c3ccc(Cl)cc3)CC2)cc1	1%	·	0.8%	·	4.5	-7%
CCOC(=O)C1CCN(C(=O)CCn2c(=O)oc3ccccc32)CC1	·	-0.7	-2.5%	-1	·	21%
CC(C)(C)c1cc(CN2CCN(CCC#N)CC2)cc(C(C)(C)C)c1O	-8%	-1.8	0.4%	0	2.5	3%
Cc1cc(NS(=O)(=O)c2cccs2)no1	-3%	-0.5	-1.1%	1	-0.2	0%
CCN(CC)S(=O)(=O)c1ccc(-c2nnc3sc4cccc(C)c4n23)cc1	?	1.4	4.2%	?	0.8	42%
CCOc1c(OC)cc(C2C(C#N)=C(N)Oc3n[nH]c(-c4ccncc4)c32)cc1OC (stereo not drawn)	-1%	-0.6	0.2%	23	-2.2	-56%[inhibitor]

# Next part
SMILES	gsp antagonist	TRPML1 ag	ClpP mod	TRPML1 inh	Menin-MLL FL inh	gsp ag
CCc1ccc(OCC(=O)NC(=S)Nc2ccc(C(=O)O)cc2)cc1	-15%	0.4	·	17	0.5	2%[15.4 µM]
CCn1cc(CNC(=O)c2cc(-c3ccc(C)c(C)c3)nc3ccccc23)c(C)n1	·	2.7	?	26	·	·
COc1cccc(/C=C/c2ccc3cccc(O)c3n2)c1OC	-16%	-0.3	-3.9%	5	10.0	3%
CC1C=CCC2C(=O)N(c3cccc(C(=O)Nc4ccc(Br)cc4)c3)C(=O)C12 (stereo not drawn)	-17%	1.7	-21%	-1	-0.1	-32%[inhibitor]
Cc1cc(=O)[nH]c2n[nH]c(-c3ccccc3)c12	-5%	-0.4	25µM*	-1	9.1	7%
COc1ccccc1C1C(C(N)=O)=C(C)Nc2ncnn21 (stereo not drawn)	1%	0.0	-1.1%	3	-1.8	7%
COCCOC(=O)C1=C(C)NC(C)=C(C(=O)OCCOC)C1/C=C/c1ccccc1OC	-7%	1.6	·	-3	2.7	-9%
O=C(Nc1ccc(-c2cn3ccccc3n2)cc1)c1cccs1	-9%	0.1	·	-15	-1.7	19%

# Screening data: PubChem BioAssay, National Center for Advancing Translational Sciences (NCATS)
